Vaccinia Venus = qHTS for Stage-Specific Inhibitors of Vaccinia Orthopoxvirus: Venus Reporter Primary qHTS | AID 720580, 2013 | Potency, µM (titrated, usually from 36.5 µM), inactives show at the highest dose activity change, negative = inhibition, actives largely listed as inhibitors | Vaccinia virus Venus reporter expression, fluorescence | 330,000 tested, 0.46% active; active means well fitted inhibition curve with a large enough effect; inconclusive means small, poorly fitted or top-dose-only effect; inactive means no such curve, though single readings can be large or run the other way; tested in A549 cells; also: nearly all actives have a fitted effect of over 30% in size; inactives centre near -10
VACV mCherry inh = qHTS for Stage-Specific Inhibitors of Vaccinia Orthopoxvirus: mCherry Reporter Primary qHTS; 310,000 tested, 0.63% active; AID 720579, 2013; Vaccinia virus mCherry reporter infection, fluorescence; about a quarter of the inactives have no number; Potency, µM (doses to about 36.5 µM), for the others: at the highest dose activity change, negative = inhibition, actives largely listed as inhibitors; active = well fitted inhibition curve with a large enough effect; inconclusive = small, poorly fitted or top-dose-only effect; inactive = no such curve, though single readings can be large or run the other way; tested in A549 cells; also: nearly all actives have a fitted effect of over 35% in size; inactives centre near -10
An asterisk follows results filed as active; i = inactive; ? = inconclusive; . = no result given; & = joins results of further samples; [ ] = another dose, or the depositor's remark. % is scaled to controls: 0 for no effect and ±100 for the full control effect; potency is read from the fitted curve at half-maximal effect.

Results follow in this order: Vaccinia Venus	VACV mCherry inh
1: COc1ccc(CCNC(=O)c2c(O)c3c([nH]c2=O)CCCC3)cc1
→ -12.6%	-23.9%
2: O=C(COc1ccccc1-c1ccccc1)NCCN1C(=O)S/C(=C\c2cccnc2)C1=O
→ -13.9%	-14.7%
3: COCc1cc(CNC(=O)C2CCC(=O)N(Cc3ccccc3F)C2)[nH]n1 (centres undefined)
→ -3.4%	-13.2%
4: COC(=O)c1nc(NC2=NCCCCC2)n[nH]1
→ -13.7%	-5.0%
5: CCc1ccccc1NC(=O)CSc1nnc(C2CC2)n1CC1CCCO1 (centres undefined)
→ 1.2%	i
6: CC(C)CC(NC(=O)CCCNC(=O)CCC(=O)OC1O[C@H]2OC3(C)CC[C@H]4[C@H](C)CCC(C1C)C24OO3)C(=O)O (some centres undefined)
→ 1.3%	-17.9%
7: CC1CCN(S(=O)(=O)c2cccc(C(=O)NNC(=O)c3ccco3)c2)CC1
→ -5.7%	2.9%
8: COc1ccc(C2(CNC(=O)c3cc(OC)c(OC)c(OC)c3)CCCC2)cc1OC
→ -3.0%	-12.5%
9: CCOC(=O)c1cccc(NC(=O)c2cnc3sc(N4CCOCC4)nn3c2=O)c1
→ -3.3%	-10.3%
10: C=CCn1c(C)nnc1SCC(=O)Nc1cc(S(=O)(=O)N2CCCC2)ccc1Cl
→ -0.7%	-15.1%
11: COc1ccccc1N1CCN(c2ncnc3c2cnn3C)CC1
→ -15.5%	-29.2%
12: CCOc1ccc(C2CC(=O)c3c([nH]c(C(=O)OCCOc4ccccc4)c3C)C2)cc1 (centres undefined)
→ ?	-17.4%
13: Cc1ccc(-c2nc(C)c(CCNC(=O)C(=O)Nc3cc(C)ccc3C)s2)cc1
→ 4.4%	-1.6%
14: Clc1nc(Cl)nc(N(c2ccccc2)c2ccccc2)n1
→ -4.9%	i
15: COc1ccc(C(C)(O)c2nc(-c3ccc4c(c3)OCO4)cs2)cc1 (centres undefined)
→ 9.4%	9.9%

Full records as entered above. Values in the order: Vaccinia Venus, VACV mCherry inh
Record of CCOc1ccc(C2CC(=O)c3c([nH]c(C(=O)OCCOc4ccccc4)c3C)C2)cc1 (centres undefined) : ?, -17.4%
Record of CC1CCN(S(=O)(=O)c2cccc(C(=O)NNC(=O)c3ccco3)c2)CC1 : -5.7%, 2.9%

Further structures follow.
Results follow in this order: Vaccinia Venus	VACV mCherry inh
16: CC(=O)Nc1cccc(NC(=O)c2ccc([N+](=O)[O-])cc2Cl)c1
→ -9.1%	-2.1%
17: CCOc1ccc(NC(=O)CSc2nc3c(oc4ccccc43)c(=O)n2CCOC)cc1
→ -6.6%	0.2%
18: COC(=O)[C@@]12C[C@@H](CC(=O)N3CCN(C(=O)C4CC4)CC3)C(=O)N(Cc3ccc4c(c3)OCO4)C1=CCC(C)(C)C2
→ -22.3%	-9.2%
19: COc1cc(C2CC(=O)Nc3cc(C)c(C)cc32)cc(OC)c1OC (centres undefined)
→ -18.9%	?
20: COc1cccc(/C=C/C(=O)Nc2ccc3nc(N4CCN(C)CC4)cc(C)c3c2)c1OC
→ -20.4%	-19.9%
21: Cc1nn(-c2ccc3ccccc3c2)c(=O)c2ccccc12
→ -18.4%	0.9%
22: COc1cc(C(=O)NC2CCN(C)CC2)ccc1Nc1ncc2c(n1)N(Cc1ccccc1)CCC(=O)N2C
→ ?	-18.2%
23: Cc1ccc(C(=O)NC(=S)NCC2CCCO2)cc1[N+](=O)[O-] (centres undefined)
→ -23.8%	-12.3%
24: O=C(CN1CCCCC1)Nc1ccccc1-c1ccccc1
→ -7.3%	-16.4%
25: O=C(Nc1cccc(Cl)c1N1CCCC1)c1ccco1
→ 10.1%	-12.2%
26: COc1cc2c(cc1OC)C(/C=C/c1ccco1)=NCC2
→ ?	?
27: COCCNC(=O)C1CCCN(C(=O)c2ccc(OC)c(F)c2)CC1 (centres undefined)
→ 10.8%	i
28: COC(=O)CC1Oc2ccccc2-n2cc(-c3ccc(C)cc3)nc21 (centres undefined)
→ -3.6%	-2.0%
29: COc1cc(CNCCN2CCOCC2)ccc1OCc1ccc(Cl)cc1
→ -13.6%	.
30: O=C(Nc1cccc([N+](=O)[O-])c1)ONC1=NCCCCC1
→ -10.1%	-16.6%
31: Cc1cccc(C)c1Nc1c(-c2cccs2)nc2ncccn12
→ 2.7%	-4.7%
32: Nc1nc(COc2ccccc2)cs1
→ -10.7%	i
33: CN(C)c1nnnn1-c1ccc(Oc2ncc(C(F)(F)F)cc2Cl)cc1
→ -6.7%	-6.7%
34: Cc1cc(C)cc(NC(=S)N2CCN(Cc3ccccc3)CC2)c1
→ 4.3%	-21.7%
35: CCOc1ccc(-n2c(SC(C)C(=O)OC)nc3c([nH]c4ccccc43)c2=O)cc1 (centres undefined)
→ -5.6%	-15.9%
36: Oc1ccc2ccccc2c1N=Nc1ccccn1
→ -20.3%	.
37: N#Cc1c(N)nc(-c2ccccc2)nc1-c1ccccc1
→ -22.3%	-27.8%
38: CCOC(=O)c1nccnc1C(=O)Nc1cccc(C(F)(F)F)c1
→ -9.1%	-11.0%
39: Cc1csc(SCC(=O)O)n1
→ -3.3%	.
40: COC(=O)c1c(NC(=O)CCCOc2ccccc2C)sc2c1CCC2
→ -3.7%	-8.2%
41: C[C@H](CO)N1C[C@H](C)[C@@H](CN(C)C(=O)Nc2ccccc2)Oc2ncc(-c3ccc(C#N)cc3)cc2C1=O
→ -7.3%	-15.2%
42: Cc1cccc(NC(=O)CSCC(=O)NCc2cccc(C(F)(F)F)c2)c1
→ -22.6%	-5.4%
43: COc1ccc(OC)c(-c2cc(C(=O)N3CCN(c4ccccc4)CC3)no2)c1
→ -4.5%	3.0%
44: CCN(CCO)Cc1csc2c(Br)cccc12
→ -12.6%	.
45: Cc1nn(-c2ccccc2)c(C)c1/C=N/n1c(-c2ccc(Cl)cc2)n[nH]c1=S
→ 2.7%	-13.0%
46: O=C1Cc2c([nH]c3ccc(Br)cc23)-c2ccccc2N1
→ ?	?
47: O=C(CC12CC3CC(CC(C3)C1)C2)Nc1ccc(C(=O)O)cc1
→ -6.4%	-12.4%
48: COc1ccc(CCN(C)C(=O)c2cc(-c3ccccc3)nc3ccccc23)cc1OC
→ -12.8%	-2.3%
49: O=S(=O)([O-])C(c1ccccc1)[n+]1ccccc1 (centres undefined)
→ -13.8%	-12.8%
50: O=c1n(-c2ccccc2)c(=O)n(Cc2ccccn2)n1Cc1ccccn1
→ -2.9%	-11.0%
51: C/C(=N/NC(=O)c1nnn(-c2nonc2N)c1-c1ccccc1)c1ccc2c(c1)OCO2
→ -13.1%	-7.4%
52: CC[n+]1c(/C=C/N(C)c2ccccc2)sc2ccc(Cl)cc21
→ -9.5%	-8.1%
53: COc1ccc(C)cc1NS(=O)(=O)c1c(C)nc2sc(C)cn2c1=O
→ -23.6%	?
54: c1ccc(-c2cn(-c3ccccc3)c3ncnc(NCCCN4CCOCC4)c23)cc1
→ -13.6%	i
55: O=[N+]([O-])c1cc2c(c(CSc3ncccn3)c1)OCOC2
→ -2.8%	-7.9%
56: O=C(COC(=O)C12CC3CC(CC(O)(C3)C1)C2)Nc1cccc(Br)c1
→ -19.5%	-16.1%
57: N#CC1=C(N)Oc2cc(N)ccc2C1c1ccsc1 (centres undefined)
→ 3.0%	i
58: CC(C)OC(=O)c1nnc(Cc2ccc(F)cc2)o1
→ 4.7%	2.1%
59: COCCN(C(=O)CSc1nnc(-c2cccc(Cl)c2)n1N)c1c(N)n(CC(C)C)c(=O)[nH]c1=O
→ -10.9%	?
60: Cc1ccc(S(=O)(=O)NC2(C(F)(F)F)NC(=O)N(c3ccc(F)cc3)C2=O)cc1 (centres undefined)
→ -1.3%&-4.9%	-12.3%&-10.6%
61: Cc1ccc(C(=O)N2CCC3(CC2)Oc2ccc(F)cc2C(=O)C32CC(c3ccc(Cl)cc3)=NO2)s1 (centres undefined)
→ -25.2%	-10.9%
62: CNC(C)C#Cc1ccc2oc3cc(C)c(C)cc3c(=O)c2c1 (centres undefined)
→ -28.2%	-14.0%
63: CCOc1ccc(-c2n[nH]c3c2C(c2ccccc2OC)N(c2ccc(Br)cc2)C3=O)cc1 (centres undefined)
→ -23.3%	-29.2%
64: Cc1ccc(O)c(NC(=O)c2cc(-c3ccccc3O)no2)c1
→ 32.5%[activator]	-12.7%
65: CC(C)c1ccc(NC(=O)C(NS(=O)(=O)c2ccc3c(c2)CCC(=O)N3)c2ccccc2)cc1 (centres undefined)
→ -4.5%	-13.9%
66: O=C1c2[nH]nc(-c3ccccc3O)c2C(c2ccccc2F)N1Cc1cccnc1 (centres undefined)
→ -20.9%	-20.3%
67: CCNc1nc2[nH]c(=O)c3c(c2s1)OC(N)=C(C#N)C3c1ccc(C)cc1 (centres undefined)
→ -9.1%	.
68: COC(=O)CSc1nc(NC#N)nc(NC(C)C)n1
→ -11.1%	.
69: CCN(CC#CCC(O)(c1ccccc1)C1CCCC1)C(C)C (centres undefined)
→ -17.0%	.
70: NC(=O)NC(Cc1ccccc1)C(=O)Nc1ccc(S(N)(=O)=O)cc1 (centres undefined)
→ -10.7%	.
71: CC(=O)Nc1nonc1-c1nc2ccccc2n1CCC#N
→ -8.4%	i
72: Cc1cc(C)cc(N(CC(=O)NCc2cccnc2)S(C)(=O)=O)c1
→ -12.2%	-13.4%
73: CC(=O)Nc1cccc(-c2ccnc3c2CC(C(=O)Nc2ccc(Cl)cc2)O3)c1 (centres undefined)
→ ?	-14.9%
74: CCC(COC(=O)c1ccccc1)Oc1cc(NCc2ccccc2)c2ncn(C(C)C)c2c1 (centres undefined)
→ -19.8%	?
75: CC(=O)C[C@@H](O)CC(=O)[C@@H]1OC(=O)[C@H](C)C/C=C\Cc2ccccc21
→ -0.1%	i

Carrying on:
Results follow in this order: Vaccinia Venus	VACV mCherry inh
76: COc1ncnc2c1ncn2CC1COC(C)(C)O1 (centres undefined)
→ -9.5%	-5.9%
77: NS(=O)(=O)c1ccc(Oc2ccc(S(N)(=O)=O)cc2)cc1
→ -12.1%	-5.3%
78: O=C(N/N=C/c1coc2ccccc2c1=O)c1cc2ccccc2o1
→ -1.2%	-16.5%
79: O=S(=O)(c1ccc2ccccc2c1)N1CCC(c2nc(-c3ccncc3)no2)CC1
→ -11.4%	-26.0%
80: COc1ccc(C(=O)Nc2cc(S(=O)(=O)c3ccc(Cl)cc3)c(O)c(C)c2C)cc1
→ -2.9%	4.0%
81: COc1ccc(/C=C(\NC(=O)c2ccc(OC)cc2)C(=O)NC(CCSC)C(=O)O)cc1 (centres undefined)
→ -15.5%	.
82: CN1CCN(c2ccc(N)c(N3CCN(C)CC3)c2)CC1
→ -12.5%	.
83: CN1OC(Cn2cc(C#N)c(=O)n(C)c2=O)CC1c1ccccc1 (centres undefined)
→ -18.0%	i
84: N#CCCNc1c(Cl)cc(Cl)cc1C(=O)O
→ -16.6%	-14.1%
85: CCOc1ccc(CNC(=O)c2ccc3c(c2)nc2n3CCC(C)C2)cc1OC (centres undefined)
→ -8.0%	-14.2%
86: COc1ccccc1-c1cc2nc(NCCc3ccc(S(N)(=O)=O)cc3)ccn2n1
→ -7.7%	i

Entries from the list above containing an aryl methoxy group (19):
Results follow in this order: Vaccinia Venus	VACV mCherry inh
1: COc1ccc(CCNC(=O)c2c(O)c3c([nH]c2=O)CCCC3)cc1
→ -12.6%	-23.9%
8: COc1ccc(C2(CNC(=O)c3cc(OC)c(OC)c(OC)c3)CCCC2)cc1OC
→ -3.0%	-12.5%
11: COc1ccccc1N1CCN(c2ncnc3c2cnn3C)CC1
→ -15.5%	-29.2%
15: COc1ccc(C(C)(O)c2nc(-c3ccc4c(c3)OCO4)cs2)cc1 (centres undefined)
→ 9.4%	9.9%
19: COc1cc(C2CC(=O)Nc3cc(C)c(C)cc32)cc(OC)c1OC (centres undefined)
→ -18.9%	?
20: COc1cccc(/C=C/C(=O)Nc2ccc3nc(N4CCN(C)CC4)cc(C)c3c2)c1OC
→ -20.4%	-19.9%
22: COc1cc(C(=O)NC2CCN(C)CC2)ccc1Nc1ncc2c(n1)N(Cc1ccccc1)CCC(=O)N2C
→ ?	-18.2%
26: COc1cc2c(cc1OC)C(/C=C/c1ccco1)=NCC2
→ ?	?
27: COCCNC(=O)C1CCCN(C(=O)c2ccc(OC)c(F)c2)CC1 (centres undefined)
→ 10.8%	i
29: COc1cc(CNCCN2CCOCC2)ccc1OCc1ccc(Cl)cc1
→ -13.6%	.
43: COc1ccc(OC)c(-c2cc(C(=O)N3CCN(c4ccccc4)CC3)no2)c1
→ -4.5%	3.0%
48: COc1ccc(CCN(C)C(=O)c2cc(-c3ccccc3)nc3ccccc23)cc1OC
→ -12.8%	-2.3%
53: COc1ccc(C)cc1NS(=O)(=O)c1c(C)nc2sc(C)cn2c1=O
→ -23.6%	?
63: CCOc1ccc(-c2n[nH]c3c2C(c2ccccc2OC)N(c2ccc(Br)cc2)C3=O)cc1 (centres undefined)
→ -23.3%	-29.2%
76: COc1ncnc2c1ncn2CC1COC(C)(C)O1 (centres undefined)
→ -9.5%	-5.9%
80: COc1ccc(C(=O)Nc2cc(S(=O)(=O)c3ccc(Cl)cc3)c(O)c(C)c2C)cc1
→ -2.9%	4.0%
81: COc1ccc(/C=C(\NC(=O)c2ccc(OC)cc2)C(=O)NC(CCSC)C(=O)O)cc1 (centres undefined)
→ -15.5%	.
85: CCOc1ccc(CNC(=O)c2ccc3c(c2)nc2n3CCC(C)C2)cc1OC (centres undefined)
→ -8.0%	-14.2%
86: COc1ccccc1-c1cc2nc(NCCc3ccc(S(N)(=O)=O)cc3)ccn2n1
→ -7.7%	i

Screens deposited in PubChem by National Center for Advancing Translational Sciences (NCATS).
